# Compound activity deposited in PubChem by The Scripps Research Institute Molecular Screening Center.
# PAD4 inh – human PAD4 inhibitors, primary screen, biochemical, fluorescence polarization, 1536-well format. recombinant PAD4, RCA probe fluorescence polarization. Protein-arginine deiminase type-4 (Homo sapiens), Q9UM07. inhibition, % at 6.36 µM. AID 485272, 2010. hit rate 0.41% among 330,000;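 active = percent inhibition above a cutoff equal to the mean of all tested compounds plus 3 SD, cut at about 15% in these data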;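 also: 0% = PAD4 with RCA probe and DMSO and 100% = probe without PAD4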
# LYPLA1 counter – LYPLA1 inhibitors, primary screen, counter-screen for PME1 inhibitor project, biochemical, fluorescence polarization, FP-Rh probe ABPP | Acyl-protein thioesterase 1 (Homo sapiens), O75608 | recombinant LYPLA1 | inhibition, % at 5.9 µM | hit rate 0.16% among 320,000;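 active = inhibition above the mean of all tested compounds plus 3 SD, set per campaign, cut at about 14% in these data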;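 also: inhibitors block serine hydrolase probe labeling of LYPLA1 so polarization falls; 0% = enzyme with DMSO and 100% = wells lacking LYPLA1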
# Target sequence (O75608 whole entry, looked up): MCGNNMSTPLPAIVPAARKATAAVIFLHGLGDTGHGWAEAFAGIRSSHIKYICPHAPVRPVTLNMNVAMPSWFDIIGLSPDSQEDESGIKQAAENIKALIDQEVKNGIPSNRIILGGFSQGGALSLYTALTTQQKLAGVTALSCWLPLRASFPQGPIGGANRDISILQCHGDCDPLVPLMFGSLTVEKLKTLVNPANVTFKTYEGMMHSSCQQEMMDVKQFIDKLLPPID
# LYPLA2 counter – LYPLA2 inhibitors, primary screen, counter-screen for PME1 inhibitor project, biochemical, fluorescence polarization, FP-Rh probe ABPP. Acyl-protein thioesterase 2 (Homo sapiens), O95372. hit rate 0.38% among 320,000. inhibition, % at 5.9 µM. recombinant LYPLA2;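 active = inhibition above the screen-wide mean plus 3 SD, limit set per campaign, cut at about 26% in these data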;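 also: 0% = LYPLA2 with DMSO and 100% = wells lacking LYPLA2 enzyme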
# Target sequence (O95372 whole entry, looked up): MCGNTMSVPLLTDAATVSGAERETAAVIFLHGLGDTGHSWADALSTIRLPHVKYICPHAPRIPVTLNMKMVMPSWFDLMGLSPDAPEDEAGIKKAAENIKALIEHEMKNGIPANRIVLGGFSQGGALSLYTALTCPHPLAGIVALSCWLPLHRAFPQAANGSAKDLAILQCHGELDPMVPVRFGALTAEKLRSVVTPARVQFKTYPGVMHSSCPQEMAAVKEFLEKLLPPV
# PAFAH2 FP inh – PAFAH2 enzyme inhibitors, primary screen, biochemical, fluorescence polarization, human | Platelet-activating factor acetylhydrolase 2, cytoplasmic (Homo sapiens), Q99487 | recombinant PAFAH2, FP-rhodamine activity probe | inhibition, % at 3.39 µM | hit rate 0.99% among 340,000;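 active = inhibition above the mean over all tested compounds plus 3 SD, cut at about 30% in these data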;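 also: inhibitors block probe labeling of enzyme so polarization drops; 0% = enzyme with DMSO and 100% = wells lacking PAFAH2 protein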
# PAFAH1B3 inh – PAFAH1B3 enzyme inhibitors, primary screen, biochemical, fluorescence polarization, human | recombinant PAFAH1B3, FP-rhodamine probe | inhibition, % at 3.39 µM | hit rate 0.28% among 340,000 | AID 492972, 2010;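 active = inhibition above the screen-wide average of all tested compounds plus 3 SD, cut at about 25% in these data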;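 also: 0% = enzyme with DMSO only and 100% = wells lacking PAFAH1B3 protein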
# Target sequence (Q15102 whole entry, looked up): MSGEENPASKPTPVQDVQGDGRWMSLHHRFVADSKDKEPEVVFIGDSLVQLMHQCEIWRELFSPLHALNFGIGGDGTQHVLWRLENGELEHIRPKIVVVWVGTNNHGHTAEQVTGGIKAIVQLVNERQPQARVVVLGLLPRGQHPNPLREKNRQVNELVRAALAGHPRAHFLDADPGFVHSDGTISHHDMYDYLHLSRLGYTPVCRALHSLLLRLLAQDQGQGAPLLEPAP
# Starred values were filed as active, the others as inactive.
# The line under a structure holds: PAD4 inh	LYPLA1 counter	LYPLA2 counter	PAFAH2 FP inh	PAFAH1B3 inh
CC[C@H](C)[C@H](NC(N)=O)C(=O)NCCc1ccc(Cl)cc1
 : 1	6	4	-1	13
COc1cccc(/C=N/n2c(-c3cccs3)n[nH]c2=S)c1
 : 4	2	12	4	10
CCCCOC(=O)/C=C/c1ccc(OC(=O)OC)c(OC(=O)OC)c1
 : -3	-5	1	7	13
COc1ccc(OC)c(C2NC(=O)NC(C)=C2C(=O)Nc2ccc(C)cc2)c1 (stereo unspecified)
 : -6	-1	3	-1	9
COc1cc(C(c2nnnn2C2CCCC2)N2CCc3ccccc3C2)ccc1O (stereo unspecified)
 : -6	0	4	-2	1
CCOC(=O)C1CCN(C(=O)Nc2ccc3nc(C)c(C)nc3c2)CC1
 : 3	-1	3	0	0
CN1c2ccccc2Oc2c(c(=O)n(C)c(=O)n2C)C1c1cccc([N+](=O)[O-])c1 (stereo unspecified)
 : -1	3	10	3	-1
CCCCOc1ccc(C(=O)NN2CCOCC2)cc1
 : -1	-2	-3	-3	5
COc1ccc(C2NC(c3ccc(OC)c(OC)c3OC)C(C)C(=O)C2C)c(OC)c1OC (stereo unspecified)
 : 2	0	2	6	3
COc1ccc(/C=N/NC(=O)c2ccc(NS(=O)(=O)c3cccs3)cc2)cc1
 : -5	0	0	0	6
CCc1cc(C(=O)c2ccc(OC)cc2)c(NC(=O)COCC(=O)O)s1
 : 2	-5	-12	3	-2
COc1cccc(OC)c1OCCOCCn1cnc2ccccc2c1=O
 : -1	1	-2	7	6
O=C(CSc1ncnc2sc3c(c12)CCCC3)N1CCC(c2noc3ccc(F)cc23)CC1
 : -2	-2	-1	-5	5
CCOC(=O)N1CCC(NC(=O)C2CCCN(c3nc4ccccc4o3)C2)CC1 (stereo unspecified)
 : 4	-2	-2	-11	6
CCCCC(C(=O)NCCC(C)C)N(CCCN1CCOCC1)C(=O)c1snc(C(N)=O)c1N (stereo unspecified)
 : -5	3	1	2	0
CC1Cc2nc(SCC(N)=O)n(C)c(=O)c2S1 (stereo unspecified)
 : -2	1	7	4	6
COc1ccc(OC)c(S(=O)(=O)Nc2ccccc2C(=O)O)c1
 : 7	0	-1	-3	3
CN(CC(=O)Nc1cccc(F)c1)C(=O)c1cccnc1Sc1ccccc1
 : -3	4	3	-5	0
O=C(Nc1ccc2oc(=O)ccc2c1)c1cccnc1Cl
 : 0	-2	4	10	9
CCn1c(SCC(=O)Nc2cccc(F)c2)nc2c(c1=O)SC(C)C2 (stereo unspecified)
 : 1	-3	2	-5	10
COc1ccccc1NC(=O)CN1CCC(n2c(C)nc3cc(F)ccc32)CC1
 : 3	1	4	-6	8
Cc1cc(O)c(NC(=O)c2ccc(Br)o2)cc1C
 : -3	-1	-3	-1	12
CCOCCCn1c(=S)[nH]c2cc(C(=O)NCc3ccc(F)cc3)ccc2c1=O
 : 0	4	-3	2	-6
CCS(=O)(=O)n1c(Cc2cccs2)nc2ccccc21
 : -6	4	-8	-5	6
CSC1=C(C#N)C(C)C2=C(CC(C)(C)CC2=O)N1 (stereo unspecified)
 : -2	-2	7	8	6
COc1ccc(/C=C/C(=O)NC(=S)N2CCCC(C(N)=O)C2)cc1 (stereo unspecified)
 : -8	4	2	0	2
Cc1ccc(CNC(=O)C2CN(S(C)(=O)=O)c3cc(Cl)ccc3O2)cc1 (stereo unspecified)
 : -4	-2	-3	3	9
CCCOc1ccc(C(C)=O)cc1CSc1nc(O)cc(=O)[nH]1
 : -4	-3	2	6	3
COc1ccc(OC)c(-n2c(-c3cc(-c4ccccc4)n[nH]3)n[nH]c2=S)c1
 : 3	-2	1	5	11
Cc1ccc(-c2n[nH]c(=S)n2/N=C/c2ccc(C)s2)cc1
 : -1	4	-6	-5	4
Cc1oc(C(=O)Nc2ccc(O)cc2)cc1COc1ccccc1
 : -2	-3	-1	-6	4
CC(C)CCn1c(=O)c2ccccc2n2c(CN3C(=O)NC4(CCC(C)CC4)C3=O)nnc12 (stereo unspecified)
 : 0	3	2	5	4
CSc1ncccc1C(=O)N(C)CC(=O)Nc1ccc(Cl)c(C(F)(F)F)c1
 : 0	-1	-2	-3	5
COc1ccc(CCNc2ncnc3sccc23)cc1OC
 : -2	3	-2	-4	1
Cn1c(=O)[nH]c(=O)c2c1nc(NC1CCCCC1)n2CCO
 : 2	3	6	-8	5
COc1ccccc1-c1n[nH]c(=S)n1Cc1ccccc1
 : 1	-4	3	-3	-1
CC(C)(O)C(=O)NN(C(=O)c1ccccc1)c1ccc2ccccc2c1
 : 3	-3	4	-4	8
O=c1oc(-c2ccccc2[N+](=O)[O-])nc2ccccc12
 : -2	-7	-2	45*	3
OC(CN1CCc2ccccc2C1)c1ccccc1 (stereo unspecified)
 : 0	-2	0	9	3
O=S(=O)(Nc1ccc2c(c1)OCCO2)c1ccc(F)cc1
 : -2	-2	-5	7	6
CN(C)C(CNC(=O)c1ccc2c(=O)n(-c3ccccc3F)c(=S)[nH]c2c1)Cc1ccccc1 (stereo unspecified)
 : -1	0	-6	-6	7
COc1ccc(C2=CSC(/N=C/c3ccc(F)cc3)=NN2)cc1
 : 2	-1	5	-4	6
CCOC(=O)C1CCN(C(=O)CCCNC(=O)Cn2cnc3sc(C)c(C)c3c2=O)CC1
 : -3	-1	2	1	9
COc1cccc(N(C(=O)c2cnccn2)C(C(=O)NC2CCCCC2)c2ccc(Cl)cc2)c1 (stereo unspecified)
 : 1	-3	6	7	5
CN(C)C(=O)NC(NC(=S)Nc1ccccc1)C(Cl)(Cl)Cl (stereo unspecified)
 : -4	1	4	5	8
O=[N+]([O-])c1ccc(COc2ncnc3ccccc23)cc1
 : 5	-2	0	3	9
CCOC(=O)C1=NN(c2ccccc2)C2C(=O)N(c3ccccc3OC)C(=O)C12 (stereo unspecified)
 : 3	0	4	2	5
COc1ccc(C(=O)NCc2nnc(SCC(=O)N3CCC(C)CC3)o2)cc1
 : 0	-2	3	2	9
C/C(=N\NC(=O)c1ccc(NS(=O)(=O)c2cccs2)cc1)c1ccc2ccccc2c1
 : 2	2	3	6	5
COc1ccccc1N1CCN(c2nc(C)nc3c2oc2ccccc23)CC1
 : -6	-3	3	2	6
C=CCn1c(COc2ccc(Cl)cc2)nnc1SCC(=O)Nc1ccc(S(N)(=O)=O)cc1
 : -4	-1	7	-2	5
COc1ccc(OC)c(NS(=O)(=O)c2ccc(Cl)s2)c1
 : -1	-1	7	12	5
Cc1cc(-c2csc(NC(=O)c3ccc(=O)[nH]c3)n2)c(C)n1Cc1ccco1
 : -5	-25	-15	0	6
COc1ccc(NC(=O)CS(=O)CC(=O)Nc2cccnc2)cc1 (stereo unspecified)
 : -3	-1	7	-9	3
COc1ccc(NC(=O)CN(C)C(=O)c2cccc(S(=O)(=O)Nc3ccccc3Cl)c2)cc1
 : 0	1	-1	-2	4
Cc1nn(-c2ccccc2)c(N)c1C1(O)C(=O)Nc2ccccc21 (stereo unspecified)
 : -8	-5	-9	-4	0
COc1ccc(C2NC(=O)NC(C)=C2C(=O)Nc2cc(C)ccc2C)cc1OC (stereo unspecified)
 : -6	0	2	9	7
N#Cc1cn(CC(=O)N2CCCC2)c2ccccc12
 : 0	-3	3	-13	5
S=c1[nH]nc(-c2ccncc2)n1/N=C/C(Cl)=C\c1ccccc1
 : 4	-1	2	5	4
CSc1ccc(-c2nc(CN(C)C3CCOC3)c(C)o2)cc1 (stereo unspecified)
 : 1	8	10	-2	-2

# (next part)
SMILES	PAD4 inh	LYPLA1 counter	LYPLA2 counter	PAFAH2 FP inh	PAFAH1B3 inh
Cc1cc(C(=O)Nc2sccc2C#N)c2ccccc2n1	-17	-12	-11	4	10
CSc1n[nH]c(NCc2ccccc2)n1	0	4	3	5	2
COCCn1c(SCC(=O)Nc2cc(OC)ccc2OC)nc2c(c1=O)SC(C)C2 (stereo unspecified)	1	-1	-3	-3	1
Cc1ccccc1OCCSc1nnc(-c2ccncc2)n1C	-5	4	2	-3	-2
O=C(NCc1ccco1)c1ccc(Cn2c(=O)c3ccccc3n(Cc3cccc(F)c3)c2=O)cc1	-7	3	-9	-10	-13
CC(C)C[C@H](NC(=O)OC(C)(C)C)C(=O)N1CCC(C(=O)O)CC1	-3	3	3	5	-1
COC1(C)CC2C(CC1OC(=O)c1cc([N+](=O)[O-])cc([N+](=O)[O-])c1)C2(C)C (stereo unspecified)	-4	-1	0	-6	6
O=C(/C=C/c1cn(-c2ccccc2)nc1-c1cccs1)NCCN1CCOCC1	5	-9	-7	3	-1

# 7 compounds from above, ordered by count of non-hydrogen atoms, low to high.
SMILES	PAD4 inh	LYPLA1 counter	LYPLA2 counter	PAFAH2 FP inh	PAFAH1B3 inh
N#Cc1cn(CC(=O)N2CCCC2)c2ccccc12	0	-3	3	-13	5
CCS(=O)(=O)n1c(Cc2cccs2)nc2ccccc21	-6	4	-8	-5	6
O=[N+]([O-])c1ccc(COc2ncnc3ccccc23)cc1	5	-2	0	3	9
CCn1c(SCC(=O)Nc2cccc(F)c2)nc2c(c1=O)SC(C)C2 (stereo unspecified)	1	-3	2	-5	10
Cc1ccc(CNC(=O)C2CN(S(C)(=O)=O)c3cc(Cl)ccc3O2)cc1 (stereo unspecified)	-4	-2	-3	3	9
COc1cccc(OC)c1OCCOCCn1cnc2ccccc2c1=O	-1	1	-2	7	6
Cc1cc(-c2csc(NC(=O)c3ccc(=O)[nH]c3)n2)c(C)n1Cc1ccco1	-5	-25	-15	0	6

# Next section.
SMILES	PAD4 inh	LYPLA1 counter	LYPLA2 counter	PAFAH2 FP inh	PAFAH1B3 inh
CCCCn1ccc(=O)c2c(C(F)(F)F)nccc21	-3	0	5	-1	3
CSc1ccc(S(=O)(=O)Nc2ccc3c(c2)OCCO3)cc1	-1	4	-4	-1	7
O=C(Nc1cccc(-c2nc3ccccc3[nH]2)c1)c1ccco1	-4	-19	-12	-15	8
CCOC(=O)c1c(-c2ccccc2)nnn1-c1nc(OCC)nc(N2CCCCC2)n1	1	-2	0	-2	2
CCn1c(Cc2ccccc2)nnc1SCC(=O)Nc1ccccc1	-4	2	0	-7	7
Cc1ccc(CC(=O)CCc2ccccc2)cc1	1	2	0	6	12
Cc1ccc(-n2c3c(c(=O)[nH]c2=O)C(NS(=O)(=O)c2ccc(C)cc2)(C(F)(F)F)C(=O)N3)cc1 (stereo unspecified)	0	0	1	3	15
CCc1ccc(NS(=O)(=O)c2ccc3[nH]cc(C(=O)N4CCCCC4)c(=O)c3c2)cc1	5	0	-3	3	9
Cc1cc(-c2[nH]nc3c2C(c2cccc(O)c2)C(C#N)=C(N)O3)c(C)s1 (stereo unspecified)	-1	4	5	9	-4
Cc1cccc(-c2cc(C(=O)Nc3ccc4c(c3)OCCO4)c3ccccc3n2)c1	2	-11	-19	-12	0
CCCn1nnc(NC(=O)c2ccc(-c3cc(Cl)ccc3Cl)o2)n1	-1	-7	1	5	6
CC(C)CNC(=O)C1CCN(c2ccc(S(=O)(=O)N3CCOCC3)cc2Cl)CC1	0	0	8	-6	3
O=C1C2CCCN2C(c2cccs2)N1c1ccc(Cl)cc1 (stereo unspecified)	0	3	0	5	-1
CN(C)c1oc(-c2ccccc2)nc1C#N	-2	2	8	-9	10
CCOC(=O)N1CCN(C(=O)c2ccc3c(c2)NC(=O)/C(=C/c2ccccc2)S3)CC1	-1	7	12	-5	4
CC(C)(C)n1nnnc1C(c1ccc2ncccc2c1)N1CCSCC1 (stereo unspecified)	1	3	3	6	10
N#CC(c1ccccc1)(c1ncc(C(F)(F)F)cc1Cl)N1CCOCC1 (stereo unspecified)	-5	2	6	0	-3
CC1(C)Cc2ccccc2C(C(=O)c2ccccc2)=N1	0	1	5	-3	12
N/C(=N\OC(=O)c1ccco1)c1cccc(Br)c1	-1	1	-1	20	0

# Some of the compounds tested; the hit share may differ from the screen's.
